Screening data (PubChem BioAssay)
INS promoter inh: TRM-6 insulin promoter activity inhibition; TRM-6 cells (human fetal islet line), insulin promoter-eGFP reporter, imaging; reporter expression induced with tamoxifen; inhibition, % at 2 µM; hit rate 0.9% among 130,000; AID 1273;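 active = inhibition above the mean plus 3 SD, with well images judged a real hit on visual review, cut at about 60% in these data, passing the limit was not always enough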
HSV augment: increases HSV replication in cells; HSV replication augmentation in cells, fold increase; maximum fold increase; hit rate 0.005% among 220,000; AID 1956;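 active = peak rise of 1.5-fold or more in the series; tested in PC3 cells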;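 note: first round at 10 µM; read as green reporter fluorescence; hits show the peak of a series up to 25 µM; 1 = signal of infected wells without compound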
RGS16-Gao HTS: regulators of human RGS16-Galphao interaction. O15492+P09471. bead-based flow cytometry RGS16-Galphao binding, fluorescence; actives lie on both sides. binding response (% of control), % at 10 µM. hit rate 0.38% among 220,000. AID 1441;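 active = below 25% or above 175%, edge rows of some plates excepted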;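 note: Galphao activated by GDP with aluminum fluoride before binding; 100% = wells without compound and 0% = beads without RGS; some results beyond the cut were filed as inactive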
GALR2 ag: agonists of human galanin receptor 2 (GALR2); AID 803; hit rate 0.48% among 140,000; O43603; activation, %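 (tested at 5 µM)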; GALR2-expressing cells, agonist activation read-out;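 active = above mean plus 3 SD of all compounds, about 5% in these data, not always enough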;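 note: 0% = vehicle buffer wells and 100% = reference agonist at full effect; tested in CHO reporter cells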
PKD1 kinase inh: PKD1 (human) kinase inhibition | PKD1 kinase fluorescence polarization assay | inhibition, %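 (about 10 µM by stock and volumes)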 | hit rate 0.056% among 200,000;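 active = inhibition of 50% or more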;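 note: controls were vehicle for no effect and a reference inhibitor for full effect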
Target sequence (Q15139 whole entry, looked up): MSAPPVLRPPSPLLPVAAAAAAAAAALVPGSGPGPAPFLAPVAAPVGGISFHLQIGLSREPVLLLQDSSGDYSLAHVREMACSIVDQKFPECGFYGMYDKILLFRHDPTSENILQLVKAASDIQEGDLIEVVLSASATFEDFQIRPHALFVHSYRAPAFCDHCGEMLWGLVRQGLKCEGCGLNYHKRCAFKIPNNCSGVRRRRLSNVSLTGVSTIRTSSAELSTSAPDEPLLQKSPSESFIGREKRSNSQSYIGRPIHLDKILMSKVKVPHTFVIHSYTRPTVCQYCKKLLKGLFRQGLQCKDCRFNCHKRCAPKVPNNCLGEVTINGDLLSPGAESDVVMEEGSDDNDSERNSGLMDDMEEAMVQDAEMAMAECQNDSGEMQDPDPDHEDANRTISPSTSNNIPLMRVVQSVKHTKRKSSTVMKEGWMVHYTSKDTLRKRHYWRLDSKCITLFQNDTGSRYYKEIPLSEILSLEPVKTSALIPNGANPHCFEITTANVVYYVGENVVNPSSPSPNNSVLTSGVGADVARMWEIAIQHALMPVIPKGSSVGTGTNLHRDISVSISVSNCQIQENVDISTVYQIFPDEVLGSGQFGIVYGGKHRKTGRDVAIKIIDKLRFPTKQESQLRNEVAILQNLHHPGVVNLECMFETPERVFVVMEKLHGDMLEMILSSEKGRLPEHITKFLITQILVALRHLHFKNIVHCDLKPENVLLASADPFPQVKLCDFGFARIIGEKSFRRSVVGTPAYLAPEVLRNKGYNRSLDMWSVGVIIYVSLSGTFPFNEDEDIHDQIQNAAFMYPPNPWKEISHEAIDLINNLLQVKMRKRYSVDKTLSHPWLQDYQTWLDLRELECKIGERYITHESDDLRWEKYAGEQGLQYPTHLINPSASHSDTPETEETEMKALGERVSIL
INS promoter inh cell count: further read-out of INS promoter inh, marked with its call; normalized cell count, %; measured here: cell count, toxicity; reference of the scale not given here;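 cells exposed to compound for 48 h; stained nuclei by imaging scaled within each plate; lower means fewer cells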
HSV augment primary fold: also measured in HSV augment; calls as there; fold increase; compound at 10 µM; measured here: primary screen fold increase 10 uM; tested in PC3 cells;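 GFP signal in the first replicate; 1 = infected wells without compound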
* hit, by the source's call; i = inactive; . = no result given; & = joins results of further samples. Rows are unselected; about 1.3% have a hit in one of these screens.

SMILES	INS promoter inh	INS promoter inh cell count	HSV augment	HSV augment primary fold	RGS16-Gao HTS	GALR2 ag	PKD1 kinase inh
CN1CCN(C(=S)NC(CC(=O)c2ccccc2)c2ccccc2)CC1 (configuration not stated)	.	.	i	1	105	.	.
CCOc1cc(-c2nc(-c3ccc(OC)cc3)no2)cc(OCC)c1OCC	-36	151	i	0.91	100	-3.7	-18
O=C(C1CCC(CNc2c(N3CCOCC3)c(=O)c2=O)CC1)N1CCN(c2ccccc2)CC1 (configuration not stated)	.	.	i	0.95	100	-1.4	-4
Cc1ccc(OCCNC(=O)/C=C/c2ccccc2)cc1	15	91	.	.	107	-1.4	-3
COc1ccc(C2CC(Cn3cc(C#N)c(=O)n(C)c3=O)ON2C)cc1 (configuration not stated)	25	121	i	1.1	98	.	7
COc1ccc(CCNC(=O)CSc2nnc(Cn3c(=O)sc4ccccc43)n2C)cc1OC	14	85	i	0.97	102	0.0	-4
C/C(=C\C(=O)C(F)(F)F)Nc1ccc(C(F)(F)F)cc1	41	124	i	1.1	90	-5.5	-1
Cc1ccc2cc(C3C(C#N)=C(N)Oc4c3ccc3cccnc43)c(=O)[nH]c2c1 (configuration not stated)	-14	42	i	1.2	100	-1.6	-3
CSCCC(Nc1nc2ccccc2s1)C(=O)O (configuration not stated)	27	104	i	0.89	103	0.2	-6
Cc1cc(C)nc(NS(=O)(=O)c2ccc(-n3cccc3)cc2)n1	-37	111	i	0.87	105	-3.6	0
Cc1ccc(O)c(C(=O)c2cnc3c(c2)CN(CCC(C)C)C(=O)N3)c1	-8	29	i	0.87	104	3.8	-6
Cc1ccccc1Nc1c(N)c(=O)oc2ccccc12	-14	163	i	0.91	108	0.7	-5
Cc1cccc2c1N(CCCOc1ccccc1)C(=O)C2=O	-36	79	i	1	92	-4.9	5
COc1cccc2sc(N3CCN(c4nc5ccccc5s4)CC3)nc12	.	.	i	0.55	99	-0.3	-10
c1ccc(-c2csc(Nc3nc(N4CCOCC4)nc(N4CCOCC4)n3)n2)cc1	-36	138	i	0.87	99	-2.1	-3
O=C(NCc1ccc2c(c1)OCO2)C(=O)Nc1ccccc1	.	.	i	1	95	.	2
CCCCOC(=O)C1[C@H]2C(=O)N(CCc3ccccc3)C[C@]23C=C[C@H]1O3 (some centres not stated)	14	94	i	0.75	120	-1.5	0
CCN(CC)c1ccc(NC(=O)c2ccccc2F)cc1S(=O)(=O)Nc1ccccc1OC	19	107	i	0.99	41	-1.3	-6
O=C(O)C1C2C=CC(O2)C1C(=O)NCCC1=CCCCC1 (configuration not stated)	-17	114	i	0.93	98	-3.6	-6
CCSc1nc2ccccc2[nH]1	100*	38*	i	1.1&0.86	92&100	-2.9&-2.7	-11&4
CSC1=N/C(=C/c2cccnc2)C(=O)N1Cc1ccc(Cl)cc1	.	.	i	1.2	107	.	.
CCCCNC(=O)C(=O)NCCCn1ccnc1	.	.	i	1	108	.	5
C=CCn1c(SCC(=O)Nc2ncc(Cc3ccc(Br)cc3)s2)nnc1-c1ccncc1	.	.	i	0.82	108	-2.4	3
Nc1ccn(Cc2cccc(F)c2)n1	.	.	i	0.96	101	.	0
CCOC(=O)c1ccc(CSc2n[nH]c(C)n2)o1	.	.	i	1.1	102	-3.7	-14

Brought forward from above: 3 compounds, then new ones.
SMILES	INS promoter inh	INS promoter inh cell count	HSV augment	HSV augment primary fold	RGS16-Gao HTS	GALR2 ag	PKD1 kinase inh
C=CCn1c(SCC(=O)Nc2ncc(Cc3ccc(Br)cc3)s2)nnc1-c1ccncc1	.	.	i	0.82	108	-2.4	3
Nc1ccn(Cc2cccc(F)c2)n1	.	.	i	0.96	101	.	0
CCOC(=O)c1ccc(CSc2n[nH]c(C)n2)o1	.	.	i	1.1	102	-3.7	-14
O=C(Nc1ccc(-c2nc3ccccc3o2)cc1)C1CCCO1 (configuration not stated)	31	68	i	0.93	106	-1.9	4
COc1ccc2c(Cl)c(-c3nnc(SCC(=O)c4ccccc4)n3C)sc2c1	7	41	.	.	102	-1.7	-7
OCCC1CN(C2CCN(c3ccccc3F)CC2)CCN1Cc1ccccc1 (configuration not stated)	.	.	i	0.99	99	.	1
CCCS(=O)(=O)N1CCN(c2ccccn2)CC1	3	88	i	0.89	91	-1.3	-9
CCO[C@@H]1OC(C(=O)O)=C[C@H](c2ccc(Br)cc2)[C@H]1CCCO	.	.	i	0.66	105	.	2
O=C(c1ccco1)N1CCN(C(=O)c2cc(-c3ccccn3)nc3ccccc23)CC1	.	.	i	0.93	74	-1.5	-3
Cc1ccnc(NC(=O)CC(c2ccccc2)c2ccccc2)n1	-38	148	i	1.1	102	.	-9
COc1ccccc1C(=O)C1CCCN(C(=O)CN2CCCCC2=O)C1 (configuration not stated)	.	.	i	1	103	.	-13
O=C(Nc1ccc(-c2nc3ccc(NC(=O)c4cccs4)cc3[nH]2)cc1)c1cccs1	-23	76	i	0.63	100	3.7	12
COCCn1c(C)cc(C2=NNC(=NC(C)(C)C)SC2)c1C	.	.	i	0.98	101	.	0
O=C(CCC1COc2ccccc2O1)Nc1ccc(Cl)cn1 (configuration not stated)	-15	122	i	0.88	100	-3.3	-3
O=C(COC(=O)c1cnccn1)c1cccc([N+](=O)[O-])c1	.	.	i	1.1	93	.	.
COc1ccc(S(=O)(=O)c2nnn(-c3cccc(OC)c3)c2N)cc1	40	128	i	0.92	100	.	-1
CCCCCc1ccc(-c2ccc(/C=C/C(N)=O)cc2)nc1	24	140	i	1	112	0.2	3
CCC(=O)Nc1ccc(NC(=O)c2c(C)nc3ccccn23)cc1	.	.	i	0.89	108	-0.6	-6
CCn1c(=O)c(C(=O)NCc2cccnc2)c(O)c2ccccc21	-14	169	i	1.1	.	-1.6	4
Cc1cc(=O)[nH]c(SCc2nc3ccccc3n2Cc2ccccc2)n1	27	73	i	0.98	113	-0.9	0
COc1ccc(/C=N/c2c(-c3ccco3)nc3ccccn23)cc1OC	-137	112	i	0.99	90	-3.2	5
CCOC(=O)c1nc(NCCc2ccccc2)sc1C	33	121	i	0.85	104	.	-7
O=C1Nc2ccc([N+](=O)[O-])cc2OC1CCN1CCN(c2ccccc2)CC1 (configuration not stated)	.	.	i	0.91	101	.	7
CC(C)=CC1C=C(C)C(C)C2C(=O)NNC(=O)C12 (configuration not stated)	23	86	i	1.1	108	-1.5	-5
COc1cc2[nH]c(=O)n(CCCCCC(=O)NCCCN3CCCC3=O)c(=O)c2cc1OC	.	.	i	0.98	97	-2.1	4
COc1cccc(-c2noc(C(C)n3nc(C)c([N+](=O)[O-])c3C)n2)c1 (configuration not stated)	.	.	i	0.99	104	-2.9	0
Cc1ccc(OC(=O)c2cccc(C(=O)Oc3ccc(C)cc3)n2)cc1	-33	35	i	1	98	-0.4	-3
CC(Sc1nc(-c2ccccc2)nc2c1COC(C)(C)C2)C(=O)N1CCOCC1 (configuration not stated)	-25	74	i	0.82	100	-0.5	2

Random excerpt: two records from the list, in no set order.
SMILES	INS promoter inh	INS promoter inh cell count	HSV augment	HSV augment primary fold	RGS16-Gao HTS	GALR2 ag	PKD1 kinase inh
O=C(Nc1ccc(-c2nc3ccc(NC(=O)c4cccs4)cc3[nH]2)cc1)c1cccs1	-23	76	i	0.63	100	3.7	12
CC(Sc1nc(-c2ccccc2)nc2c1COC(C)(C)C2)C(=O)N1CCOCC1 (configuration not stated)	-25	74	i	0.82	100	-0.5	2

Next part
SMILES	INS promoter inh	INS promoter inh cell count	HSV augment	HSV augment primary fold	RGS16-Gao HTS	GALR2 ag	PKD1 kinase inh
CCOC(=O)CSc1nc2ccccc2n2cnnc12	-6	122	i	0.84	103	-1.0	0
O=C(COc1ccccc1)N1CCN(S(=O)(=O)c2cccs2)CC1	-41	111	i	1	103	-0.2	-6
COc1ccc(CN2CCNC(=O)C2CC(=O)N(C)Cc2ccncn2)c(OC)c1 (configuration not stated)	.	.	i	1.1	106	.	5
Cc1cc(/C=C(\C#N)C(=O)N2CCOCC2)c(C)n1C1CCCC1	.	.	i	1.2	108	.	.
O=C(C1CC1c1ccccc1)N1CCOCC1 (configuration not stated)	3	68	i	1	77	-0.1	1
O=C(C[n+]1ccc(C(=O)NCCCO)cc1)c1cccc(Br)c1	.	.	i	1.1	98	.	.
COc1ccccc1CNC(=O)c1ccc(NS(=O)(=O)c2c(C)noc2C)cc1	.	.	i	0.99	98	-1.2	7
CCOc1ccc(CC(=O)OCN2C(=O)c3ccccc3C2=O)cc1	33	100	i	1	101	-0.2	-3
CCC(C)NCc1ccc(C(=O)OC)o1 (configuration not stated)	43	79	i	0.85	101	-4.4	-3
COc1ccc(-n2nc(C(=O)NCC(=O)N3CCN(c4ccccn4)CC3)c3ccccc3c2=O)cc1OC	.	.	i	0.8	102	.	-5
Cc1ccc(CNC(=O)C(Cc2ccccc2)NS(=O)(=O)c2ccc(Br)s2)cc1 (configuration not stated)	-50	123	i	0.94	88	-1.2	-6
Cc1sc2ncnc(SCC(=O)N3c4ccccc4Sc4ccc(Cl)cc43)c2c1C	38	142	i	1	100	1.3	-3
O=C(Cn1cc(SCc2cccc(Cl)c2)c2ccccc21)N1CCOCC1	-16	109	i	0.84	99	-1.4	-3
CCC(=O)c1ccc(N2CCN(C(=O)Cc3ccccc3)CC2)c(F)c1	-337	36	i	0.94	102	-1.6	-19
CSc1ncc(Cl)c(C(=O)Nc2ccccc2Br)n1	.	.	i	0.8	102	.	.
CCc1ccc(-c2nc(NC(=O)c3ccc(OCC(=O)Nc4ccc(F)cc4)c(OC)c3)sc2C)cc1	.	.	i	0.68	94	-1.3	-11
CCSc1cnc(-c2ccccc2)n1CC	.	.	i	0.91	99	-2.0	6
Cn1cc(C(=O)NCCO)c(=O)c2ccccc21	53	100	i	0.87	98	.	-2
Cc1ccc(C)c(NC(=S)N(Cc2cccc(Br)c2)CC2CCC(C(=O)O)CC2)c1 (configuration not stated)	.	.	i	0.99	97	.	-4
O=S(=O)(c1cccc(-c2cn3cccnc3n2)c1)N1CCOCC1	.	.	i	0.89	99	-0.3	-7
O=[N+]([O-])c1ccc(NCCCN2CCOCC2)c(Cl)c1	.	.	i	1.2	100	-2.1	-5
Cc1ccc2nc(-c3ccccc3)c(CC(=O)O)c(C(=O)O)c2c1	-75	121	i	0.97	101	.	2
Cc1cc(C(=O)NCCCN2CCCC2=O)cs1	-231	74	i	1	105	-1.0	-6
Oc1ccc2ccccc2c1C=Nc1ccccc1	.	.	i	0.92	79	.	.
O=C(Nc1ccc2c(c1)OCO2)C1CCN(Cc2cnn(-c3ccccc3)c2-n2cccc2)CC1	-32	110	i	0.98	134	-1.4	-11

An excerpt from above with just RGS16-Gao HTS and INS promoter inh cell count:
smiles | RGS16-Gao HTS | INS promoter inh cell count
O=C(C[n+]1ccc(C(=O)NCCCO)cc1)c1cccc(Br)c1 | 98 | .
COc1ccccc1CNC(=O)c1ccc(NS(=O)(=O)c2c(C)noc2C)cc1 | 98 | .
CCOc1ccc(CC(=O)OCN2C(=O)c3ccccc3C2=O)cc1 | 101 | 100
CCC(C)NCc1ccc(C(=O)OC)o1 (configuration not stated) | 101 | 79

The listing continues:
SMILES	INS promoter inh	INS promoter inh cell count	HSV augment	HSV augment primary fold	RGS16-Gao HTS	GALR2 ag	PKD1 kinase inh
O=C(O)c1cc(NC(=O)c2ccc(Cl)c([N+](=O)[O-])c2)cc(C(=O)O)c1	.	.	i	0.83	98	.	2
CN(CC(=O)NC1CCCc2ccccc21)S(=O)(=O)c1cccs1 (configuration not stated)	0	169	i	1.1	104	-1.7	0
CCN(Cc1ccccc1)S(=O)(=O)c1ccc(C(=O)Nc2nnc(C3CC3)o2)cc1	.	.	i	0.91	143	.	-7
Cc1cccc(N(CC(=O)NC2CCCCC2)C(=O)c2ccc(C)s2)c1	.	.	i	0.82	98	-1.1	-2
O=C(CN1CCCCC1)Nc1ccc(NC(=O)c2ccccc2Cl)cc1Cl	10	199	i	0.95	102	-1.7	-4
O=C(Cn1nc(-c2ccc(Cl)cc2)ccc1=O)NCC1CCCO1 (configuration not stated)	.	.	i	1	60	-1.8	-14
CN1CCN(/C=C(\C#N)S(=O)(=O)c2ccc(Cl)cc2)CC1	.	.	i	1.1	105	.	.
Cn1c(-c2cccc(Br)c2)n[nH]c1=O	0	144	i	1.2	101	.	-6
Cc1ccc(-n2c(SCC(=O)N3CCCC3)nc3c(c2=O)SCC3)cc1	.	.	.	.	100	-0.4	0
CN1/C(=C\C(=O)COC(=O)CN2C(=O)C3CC=CCC3C2=O)C(C)(C)c2ccccc21 (configuration not stated)	18	59	i	0.98	102	-0.2	-5
O=C(Cc1cccs1)N/N=C/C=C/c1ccccc1[N+](=O)[O-]	.	.	i	0.89	100	.	.
CCc1ccc(NC(=O)CNS(=O)(=O)c2c(C)noc2C)cc1	.	.	i	0.93	106	-1.9	-7
Cn1nnnc1SCCNCc1ccccc1OCc1ccccc1	.	.	i	1	103	-1.9	-3
